High-throughput results from PubChem.
VDR inh = blocks the human vitamin D receptor | P11473 | AID 504847 | VDR-SRC2-3 peptide fluorescence polarization, 2 h | Potency, µM, for inactives: max response, negative = inhibition, hits mostly inhibitors | actives 0.93% (n = 400,000); active = well fitted inhibition curve with a large enough effect; inconclusive = small, poorly fitted or top-dose-only effect, or another doubt; inactive = no such curve, though single readings can be large or run the other way; note: series mostly up to about 120 µM
Target sequence (P11473 whole entry, looked up): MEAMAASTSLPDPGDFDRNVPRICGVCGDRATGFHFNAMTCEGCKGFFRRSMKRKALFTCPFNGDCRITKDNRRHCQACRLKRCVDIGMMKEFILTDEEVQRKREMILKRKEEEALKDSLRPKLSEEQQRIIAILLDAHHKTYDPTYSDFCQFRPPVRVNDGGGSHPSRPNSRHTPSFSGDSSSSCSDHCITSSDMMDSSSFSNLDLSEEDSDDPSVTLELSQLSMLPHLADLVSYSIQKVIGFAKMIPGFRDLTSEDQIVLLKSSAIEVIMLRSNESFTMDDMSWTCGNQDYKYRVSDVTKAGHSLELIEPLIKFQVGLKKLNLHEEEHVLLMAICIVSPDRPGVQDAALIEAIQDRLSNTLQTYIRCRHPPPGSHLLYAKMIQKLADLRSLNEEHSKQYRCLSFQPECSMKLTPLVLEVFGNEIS
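Compounds are added to VDR with labelled SRC2-3 coactivator peptide and held 2 h at room temperature. Inhibition of the VDR–peptide interaction is then read as a change in fluorescence polarization.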
An asterisk follows results filed as active; u = inconclusive; [ ] = another dose, or the depositor's remark. % is set by controls: 0 for no effect and ±100 for the full control effect; potency is the fitted concentration of half-maximal effect.

nr	VDR inh	Molecule
1	-14.3%	O=C(N/N=C/C(Br)=C\c1ccccc1)c1ccco1
2	-4.9%	CCN(CC)S(=O)(=O)c1cccc(NC(=O)CCNC(=O)c2ccccc2Cl)c1
3	-3.7%	CCC(C)NC(=O)NC1C(NC(=O)NC(C)CC)N(C)C(=O)N1C (stereo not given)
4	6.0%	O=C(Cn1ncc2c3ccccc3n(Cc3ccccc3F)c2c1=O)NCCCN1CCCC1=O
5	-6.9%	Cc1cccn2c(=O)c3cc(C(=O)NCc4ccco4)c(=N)n(C(C)C)c3nc12
6	4.6%	CC(C)C(=O)Nc1ccc2nc(SCCOc3ccccc3)sc2c1
7	-2.0%	CCc1ccccc1NC(=O)N1CCCc2ccccc21
8	-0.4%	O=C(Nc1nn[nH]n1)c1ccc(S(=O)(=O)N2CCCCC2)cc1
9	2.0%	Cc1nnc(SCC(=O)NNC(=O)c2ccco2)s1
10	3.0%	C=CCn1c(NC(C)c2cc(Cl)ccc2O)nc2ccccc21 (stereo not given)

Rewritten field by field: entries from further up.
[1] O=C(N/N=C/C(Br)=C\c1ccccc1)c1ccco1
  VDR inh: -14.3%

[5] Cc1cccn2c(=O)c3cc(C(=O)NCc4ccco4)c(=N)n(C(C)C)c3nc12
  VDR inh: -6.9%

Going on with the list.
nr	VDR inh	Molecule
11	70.3%[activator]	CC(OC(=O)/C(C#N)=C/c1ccc(N(C)C)cc1)C(=O)N(C)Cc1ccccc1 (stereo not given)
12	-14.3%	Cc1ccc([C@@H]2CC=C(C(=O)O)[C@H](c3ccc(Cl)cc3)N2S(=O)(=O)c2ccccc2C)cc1
13	-2.6%	Cc1ccc(CNS(=O)(=O)c2ccccc2[N+](=O)[O-])cc1
14	7.7%	COC(=O)c1ccccc1NC(=O)Nc1cccc(OCc2cc(=O)n3cccc(C)c3n2)c1
15	-7.6%	Cc1cc2ccccc2c(=O)n1CC(=O)N1CCN(c2cccc(Cl)c2)CC1
16	-2.2%	O=C(NC(=S)NCC1CCCO1)c1ccccc1 (stereo not given)
17	-8.5%	CC1CC(C)CN(C(=O)c2cccc(S(=O)(=O)Nc3cc(C(F)(F)F)ccc3Cl)c2)C1 (stereo not given)
18	u	Cc1ccc2c(c1)c1n[nH]c(=S)nc1n2CCc1ccccc1
19	-6.0%	COc1ccc(CNC(=O)CSCc2nc(-c3ccccc3F)oc2C)cc1
20	22.2%	N#C/C(=C\Nc1ccccc1SC(F)(F)F)c1nc(-c2ccc(Cl)cc2)cs1
21	-11.3%	O=C(CN1C(=O)NC2(CCCC2)C1=O)NNC(=O)c1ccccc1F
22	-0.3%	Cc1ccc(S(=O)(=O)N(CC(=O)N2CCCCCC2)c2ccccc2)cc1
23	-21.5%	CCCCN1CC(=O)N2[C@H]3c4cc(OC)ccc4OC[C@@H]3[C@H](C(=O)OCC)[C@]2(C)C1=O
24	u	CC(C)(Oc1ccc(Cl)cc1)C(=O)NCCN1C(=O)S/C(=C/c2cccnc2)C1=O
25	1.6%	NC(=O)CSc1ncc2c(n1)-c1ccccc1N(Cc1cccc(F)c1)S2(=O)=O
26	-18.9%	CCN(CC)CCn1c2c(c(SCC(=O)Nc3cccc(C(C)=O)c3)nc1=O)CCCC2
27	9.5%	Cc1cc(C(=O)Nc2sc(C)c(C)c2C#N)no1
28	12.2%	CC(C)Cn1c(=O)c2sccc2n2c(CCCC(=O)NCc3ccccc3Cl)nnc12
29	-7.5%	CCc1cccc(OCCN2CCCC2)c1
30	11.1%	Cc1ccc(C2(C)NC(=O)N(CC(=O)N(C)CC(=O)Nc3cccc4ccccc34)C2=O)cc1 (stereo not given)

Part of the list above, with bars between the fields:
no. | compound | VDR inh
21 | O=C(CN1C(=O)NC2(CCCC2)C1=O)NNC(=O)c1ccccc1F | -11.3%
22 | Cc1ccc(S(=O)(=O)N(CC(=O)N2CCCCCC2)c2ccccc2)cc1 | -0.3%
23 | CCCCN1CC(=O)N2[C@H]3c4cc(OC)ccc4OC[C@@H]3[C@H](C(=O)OCC)[C@]2(C)C1=O | -21.5%
24 | CC(C)(Oc1ccc(Cl)cc1)C(=O)NCCN1C(=O)S/C(=C/c2cccnc2)C1=O | u

Following part:
nr	VDR inh	Molecule
31	-24.5%	O=C(CC1C(=O)NCCN1Cc1ccc(-c2ccccc2)cc1)NCC1CC1 (stereo not given)
32	-3.3%	COc1cccc(C(=O)N(CN2CCCC2=O)c2cccc(Cl)c2)c1OC
33	0.8%	COCCCNC(=O)/C(C#N)=C/c1c(N2CCN(c3cccc(Cl)c3)CC2)nc2c(C)cccn2c1=O
34	-12.3%	O=P(O)(COc1ccccc1)COc1ccccc1
35	-6.3%	CCN1C(=O)C(CC(=O)Nc2ccc(OC)cc2)N(CCc2ccccc2)C1=S (stereo not given)
36	3.8%	NC(=O)c1ncc(C(F)(F)F)cc1Cl
37	2.3%	O=C(NC(Cc1c[nH]c2ccccc12)C(=O)NCCCN1CCOCC1)c1cccs1 (stereo not given)
38	22.4µM*	Cc1ccc(C(C[N+](=O)[O-])c2c(-c3ccccc3O)[nH][nH]c2=O)cc1 (stereo not given)
39	5.1%	COc1ccccc1N(CC(O)COc1ccccc1C)S(=O)(=O)c1ccccc1 (stereo not given)
40	-20.1%	COc1ccc(-n2c(C)cc(C(=O)CN3C(=O)NC4(CCCc5sccc54)C3=O)c2C)cc1 (stereo not given)
41	2.2%	CCC(=O)Nc1ccc(Cl)c(-c2nc3ccccc3[nH]2)c1
42	22.6%	COC(=O)c1cc(NC(=O)N2c3ccccc3Sc3ccccc32)cc(C(=O)OC)c1
43	-6.2%	CCCCCNC(=O)CCCCCn1c(=O)[nH]c2ccsc2c1=O

3 entries from above, as tab-separated lines:
#	molecule	VDR inh
26	CCN(CC)CCn1c2c(c(SCC(=O)Nc3cccc(C(C)=O)c3)nc1=O)CCCC2	-18.9%
27	Cc1cc(C(=O)Nc2sc(C)c(C)c2C#N)no1	9.5%
28	CC(C)Cn1c(=O)c2sccc2n2c(CCCC(=O)NCc3ccccc3Cl)nnc12	12.2%

An excerpt; the hit share may differ from the screen's.
